Kir21 block: blocks the mouse Kir2.1 inward-rectifier potassium channel. hit rate 0.85% among 310,000. HEK293-Kir2.1, FluxOR thallium flux fluorescence; hits give low values. B-score at 10 µM. AID 1672. P35561;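 active = fluorescence ratio B-score at or below minus 3 SD of library scores, with starting-brightness B-score within 2 SD, cut at about -4.2 in these data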;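 also: channel flux triggered by added potassium and thallium sulfate stimulus; B-score of peak minus minimum fluorescence over baseline after thallium stimulus; more negative B-score means stronger Kir2.1 block with less thallium influx; some compounds called inactive have numbers as strong as hits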
Target sequence (P35561 whole entry, looked up): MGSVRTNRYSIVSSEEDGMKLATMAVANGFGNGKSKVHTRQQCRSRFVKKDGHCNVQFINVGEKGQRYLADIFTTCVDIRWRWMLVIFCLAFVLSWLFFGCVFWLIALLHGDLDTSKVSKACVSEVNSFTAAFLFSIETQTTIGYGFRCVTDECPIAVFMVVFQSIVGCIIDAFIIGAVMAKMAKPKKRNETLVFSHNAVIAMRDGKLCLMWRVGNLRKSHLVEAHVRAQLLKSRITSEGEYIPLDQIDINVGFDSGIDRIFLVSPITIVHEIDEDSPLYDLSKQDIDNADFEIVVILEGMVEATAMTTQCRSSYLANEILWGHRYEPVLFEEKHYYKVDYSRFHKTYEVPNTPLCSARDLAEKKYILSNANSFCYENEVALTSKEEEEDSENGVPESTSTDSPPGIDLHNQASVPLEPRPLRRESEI
Active calls of the source: *. These rows are one share of the data; most or all hits stand in other tables.

SMILES | Kir21 block
O=C(Nc1ccc(OCC(F)(F)C(F)F)cc1)c1ccncc1 | 2.1
COc1ccc(CSc2nc(C)cc(=O)[nH]2)cc1Br | 0.96
CC(C)[C@H](NC(=O)c1ccc(Cl)c([N+](=O)[O-])c1)C(=O)NCc1ccc(Cl)cc1Cl | 0.75
N#Cc1c(N)c(C(=O)c2ccc(Cl)cc2)n2c1CCC2 | -0.05
Cc1ccc2c(c1)c1nc3ccccc3nc1n2C | 2.6
Clc1ccc(-c2nnc(-c3ccccc3Cl)o2)cc1 | 1.1
C=CCn1c(C(C)NC(=O)CC)nc2ccccc21 (stereo not given) | 0.52
Cc1ccc(C(=O)NCCNS(=O)(=O)c2ccccc2)cc1 | -0.42
Cc1nn(CC(=O)Nc2ccc(C#N)cc2)c(C)c1[N+](=O)[O-] | 0.02
CCCCCCNS(=O)(=O)c1ccc(NC(=O)C2CCCO2)cc1 (stereo not given) | 0
CCN(CC)C(=O)COc1ccc(-c2nnc(Nc3ccc(OC)c(C(=O)NC)c3)c3ccccc23)cc1 | -0.49
COc1ccc(-c2csc(N)n2)cc1F | -1.4
Cc1ccccc1C(=O)OCC(=O)N(C)c1c(N)n(Cc2ccccc2)c(=O)[nH]c1=O | -2.2
Cn1c(CNC(=O)c2ccco2)nnc1SCC(=O)N1c2ccccc2Sc2ccccc21 | -2.5
CC1CCCC(NC(=O)CN2C(=O)COc3ccccc32)C1C (stereo not given) | -0.34
CSCC[C@H](NC(=O)[C@@H]1Cc2ccccc2CN1)C(=O)Nc1cccc(C)c1 | -0.8
O=S1(=O)CCC(NCC2CCCO2)C1 (stereo not given) | -1.8
COc1cc(-c2noc(C3CCCN(C(=O)c4ccccc4)C3)n2)cc(OC)c1OC (stereo not given) | 0.38
CC(C)Cc1[nH]c(=O)c(C#N)c2c1COC(C)(C)C2 | -0.82
Cc1ccnc(SC2CC(=O)N(c3ccc([N+](=O)[O-])cc3)C2=O)n1 (stereo not given) | -0.7
COc1ccc(C(=O)Nc2ccccc2C(=O)Nc2cccnc2)cc1 | 0.06
Cc1ccc([N+](=O)[O-])cc1S(=O)(=O)Nc1cccc(-c2ccc(N3CCOCC3)nn2)c1 | -0.05
CC(=O)c1nc(N2C(=O)CC(Cc3ccc(C)cc3)C2=O)sc1C (stereo not given) | -0.04
Cc1ccc(C(C)C)c(OCC(O)CN2CC(C)OC(C)C2)c1 (stereo not given) | -0.02
Nc1nc2nccc(-c3ccccn3)n2n1 | 1.5
CSc1nc(-c2ccc(C)cc2)nc(N)c1C#N | 3.5
CCCCn1c(N)c(N(CC)C(=O)c2ccc(Cl)c([N+](=O)[O-])c2)c(=O)[nH]c1=O | -0.96
NS(=O)(=O)c1ccc(NC(=O)CSc2nc3ccccc3n2-c2ccccc2)cc1 | -0.07
Cc1ccc(C(=O)Oc2cc(N)n(S(=O)(=O)c3ccc(C)cc3)n2)cc1 | 0.03
COc1ccc(CNC(=O)CN2C(=O)COc3ccc(S(=O)(=O)N4CCC(C)CC4)cc32)cc1 | 0.05

Overlap with the part before: two entries, then new ones.
SMILES | Kir21 block
Cc1ccc(C(=O)Oc2cc(N)n(S(=O)(=O)c3ccc(C)cc3)n2)cc1 | 0.03
COc1ccc(CNC(=O)CN2C(=O)COc3ccc(S(=O)(=O)N4CCC(C)CC4)cc32)cc1 | 0.05
Cc1ccc(C(=O)NCc2ccc3c(c2)OCO3)c(C)c1 | -1.5
COc1cc(/C=c2/sc3nc(-c4ccccc4)c(-c4ccccc4)n3c2=O)cc(OC)c1OC | -1.2
COc1ccc(-c2noc(CCC(=O)NCCc3cccc(C)c3)n2)cc1 | 1.6
COc1cc(/C=N/NC(=O)CN2CCCCC2)ccc1OCc1ccccc1 | -1.8
CCc1ccc(NC(=O)c2cc(-c3cccs3)on2)cc1 | -0.75
N#Cc1ccccc1NC(=O)C1CC(=O)N(c2ccc3c4c(cccc24)CC3)C1 (stereo not given) | 0.47
CCCNC(=O)c1ccccc1NC(=O)c1ccccc1N(C)S(C)(=O)=O | 1.5
COc1ccc(CNC(=O)CCCC2=NS(=O)(=O)c3ccccc3N2)cc1 | -0.65
COc1ccc(/C=C2/SC(=S)N(n3c(C)ccc3C)C2=O)cc1 | -0.59
Cc1ccc(C(=O)N/C(=C\c2cccs2)C(=O)NCCc2ccccn2)cc1C | 0.18
CC(=O)Nc1ccc(OC(=O)COc2ccc(Br)cc2)cc1 | -0.98
Cc1ccnc(N2C(=O)c3ccccc3C2O)c1 (stereo not given) | -1.2
COc1ccc(S(=O)(=O)N2CCCCC2)cc1NC(=O)CSc1nccn1C | 1.8
C/C(N)=C(/C#N)C(=O)COc1ncnc2ccccc12 | -0.02
NS(=O)(=O)c1ccc(CCNC2CC(=O)N(Cc3ccccc3)C2=O)cc1 (stereo not given) | -1.8

Reformatted: 7 of the compounds above.
SMILES,Kir21 block
CCCNC(=O)c1ccccc1NC(=O)c1ccccc1N(C)S(C)(=O)=O,1.5
COc1ccc(CNC(=O)CCCC2=NS(=O)(=O)c3ccccc3N2)cc1,-0.65
COc1ccc(/C=C2/SC(=S)N(n3c(C)ccc3C)C2=O)cc1,-0.59
Cc1ccc(C(=O)N/C(=C\c2cccs2)C(=O)NCCc2ccccn2)cc1C,0.18
CC(=O)Nc1ccc(OC(=O)COc2ccc(Br)cc2)cc1,-0.98
Cc1ccnc(N2C(=O)c3ccccc3C2O)c1 (stereo not given),-1.2
COc1ccc(S(=O)(=O)N2CCCCC2)cc1NC(=O)CSc1nccn1C,1.8

Additional entries.
SMILES | Kir21 block
O=c1[nH]c(CSc2nnnn2-c2ccc(Cl)cc2)nc2ccccc12 | 1.4
O=S(=O)(Cc1ccccc1)Nc1ccc(S(=O)(=O)N2CCCC2)cc1 | 0.01
O=C(NCCCl)Nc1cccc(Br)c1 | -0.51
COc1cc(OC)cc(C(=O)NNC(=O)c2cc(=O)[nH]c3ccccc23)c1 | -0.38
Cc1ccccc1/C=N/Nc1ccnc2cc(Cl)ccc12 | 0.67
Fc1cccc(CN2CCN3CCCC3C2C2CCCCC2)c1 (stereo not given) | -2.1
COc1ccccc1NC(=O)CSc1nnc(-c2ccoc2C)n1CC1CCCO1 (stereo not given) | -0.47
NC(=O)[C@@H]1CC2(CC(c3cccc(NC(=O)CC(c4ccccc4)c4ccccc4)c3)=NO2)CN1C(=O)[C@@H]1CCC(=O)N1 (stereo not given in full) | -0.44
Clc1ccc(-n2cccc2)cn1 | 0.81
CCC1(c2ccccc2)NC(=O)N(CC(=O)NCc2ccc(C)cc2)C1=O (stereo not given) | 0.01
CCC(CC)C(=O)N1CCN(c2cccc(C)c2C)CC1 | 1.2
Cc1cc(=O)oc2ccc(OC(=O)c3cccc(S(=O)(=O)N4CCOCC4)c3)cc12 | -2.1
O=C(CCCC(=O)NCCc1ccccc1)NCCc1ccccc1 | 0.29
CC(NCc1ccc(S(N)(=O)=O)cc1)C(=O)N1CCc2ccccc21 (stereo not given) | 2.7
Cc1ccc2cc(/C=N/Nc3ccc(C(=O)O)cc3)c(Cl)nc2c1 | 0.29
CC(=O)Nc1ccc(S(=O)(=O)NC2=NCN(c3ccc([N+](=O)[O-])cc3)CN2)cc1 | -0.05
O=C(c1ccc(NS(=O)(=O)c2cccc(F)c2)cc1)N1CCCC1 | -0.01
O=C(NCCCN1CCCC1=O)c1ccc2c(=O)n(Cc3ccco3)c(=S)[nH]c2c1 | 0.16
CC(NC(=O)c1ccccc1)C(=O)N/N=C/c1ccco1 (stereo not given) | -1.1
COc1ccc2c(c1)CCc1cn[nH]c1-2 | 0.37
COc1ccc(C(=O)c2ccccc2Cl)cc1OC | 0.29
C/C(=N/NC(=O)c1ccoc1C)c1ccc(NC(=O)c2ccncc2)cc1 | 0.02
O=C(NCCc1ccccn1)C1CCN(S(=O)(=O)c2ccc3ccccc3c2)CC1 | 0.02
O=C(/C=N/O)Nc1ccccc1C(=O)O | -2.2
COc1cc(C)c(NC(=S)NCCCN2CCOCC2)cc1OC | -0.02
CC(=O)c1ccc(OCC(=O)c2cc(C)n(-c3ccc4c(c3)OCO4)c2C)cc1 | 0.44
Cc1ccc(-n2ncc3c(NNC(=O)c4ccco4)ncnc32)cc1Cl | 1.5
CN1CCCC1c1cccnc1 (stereo not given) | 0.72
O=C(NCCO)/C(=C\c1ccc2c(c1)OCO2)NC(=O)c1ccc(Br)cc1 | 0.42
COc1ccc(N2CCN(c3ccc(NC(=O)NN)cc3)CC2)cc1 | -0.17
Cc1ccc(NC(=O)c2cccnc2)cc1C | -0.15
CC(C)NC(=O)CC1(C(=O)NCc2ccc(Cl)cc2)CCCC1 | 0
CCCn1cc(CN2CCN(Cc3ccc(C)o3)C(CCO)C2)c(C)n1 (stereo not given) | -0.22
OCC[C@@H]1C[C@H](O)[C@@H](O)[C@@]2(CCCO2)O1 | 0.35
O=C(NC1CCCCCC1)c1nnc(Cc2ccc(Cl)cc2)o1 | 0.27
CCOc1ccc(C(CC(=O)O)NC(=O)CCCOc2ccc(Cl)cc2C)cc1 (stereo not given) | 1.4
CCC1CCCCN1C(=O)CSc1nc(C)cc(C)n1 (stereo not given) | -1.7
COc1ccc(CCNS(=O)(=O)c2ccc3oc(C(=O)O)c(C)c3c2)cc1OC | -0.81
O=c1[nH]nc(-c2ccc(F)cc2)cc1Cc1ccccc1 | 0.69
O=C(CN(CCc1ccccc1)S(=O)(=O)c1ccc(Br)cc1)N/N=C/c1ccccc1C(=O)O | -0.01
COc1cc(NC(=O)CSc2ccc(-c3cccnc3)nn2)cc(OC)c1 | -1.1
COc1ccc(-n2nc(C(=O)NCC(=O)N3CCN(c4ccccn4)CC3)c3ccccc3c2=O)cc1 | 0.18
COc1ccc(N(C(=O)COc2ccc(F)cc2)S(=O)(=O)c2ccc(C)cc2)cc1 | -2.4
CCCCOc1ccc(-c2nc(SCC(N)=O)n[nH]2)cc1 | -0.21
CC(C)c1[nH]nc2c1C(c1cccc(OC(=O)N3CCOCC3)c1)C(C#N)=C(N)O2 (stereo not given) | 0.86

A few values from above:
Reading for COc1ccc(N(C(=O)COc2ccc(F)cc2)S(=O)(=O)c2ccc(C)cc2)cc1 under Kir21 block: -2.4
Reading for CCCCOc1ccc(-c2nc(SCC(N)=O)n[nH]2)cc1 under Kir21 block: -0.21
Reading for CC(C)NC(=O)CC1(C(=O)NCc2ccc(Cl)cc2)CCCC1 under Kir21 block: 0
Reading for COc1cc(NC(=O)CSc2ccc(-c3cccnc3)nn2)cc(OC)c1 under Kir21 block: -1.1
Reading for CCCn1cc(CN2CCN(Cc3ccc(C)o3)C(CCO)C2)c(C)n1 (stereo not given) under Kir21 block: -0.22
Reading for O=C(CN(CCc1ccccc1)S(=O)(=O)c1ccc(Br)cc1)N/N=C/c1ccccc1C(=O)O under Kir21 block: -0.01

Remaining list, next part:
SMILES | Kir21 block
CCc1nnc(NC(=O)CSc2ncnc3c2oc2ccccc23)s1 | 1.5
O=C(Nc1cccc(O)c1)c1cccc(S(=O)(=O)Nc2cccc(O)c2)c1 | -1.6
O=C(COC(=O)c1cc(S(=O)(=O)N2CCCCC2)ccc1N1CCOCC1)NC1CCS(=O)(=O)C1 (stereo not given) | 0.15
Cc1cc(C)cc(N2CN=C3SCC(=O)N3C2)c1 | 0.45
NS(=O)(=O)c1ccc(CNC(=S)Nc2ccc(F)c(Cl)c2)cc1 | -1.8
CC1CN(c2oc(-c3cccs3)nc2C#N)CC(C)O1 (stereo not given) | -0.77
CSc1cccc2sc(NC(=O)C3=COCCO3)nc12 | 0.72
COc1ccc(CCNC(=O)c2cc3sccc3n2C)cc1OC | 0.18
O=C(Nc1ccc(F)cc1F)N1CCN(C/C=C/c2ccccc2)CC1 | 0.07
Cc1ccc(NC(=O)[C@@H](NC(=O)c2cccc(S(=O)(=O)N3CCOCC3)c2)C(C)C)cc1C | -1.5
O=C(NCc1ccco1)C(C(=O)c1ccc(F)cc1)n1ccccc1=O (stereo not given) | -0.39
CCCc1cc(=O)oc2cc(OCC(=O)Nc3ccc(S(N)(=O)=O)cc3)ccc12 | 1.3
Cc1ccc(OC(=O)c2cc3ccccc3o2)cc1 | 0.48
CCCOCCOC(=O)C1=C(C)NC(=O)NC1c1cc(Cl)c(O)c(OC)c1 (stereo not given) | 1.3
C=CCc1c(C)nc(SCC(=C)C)[nH]c1=O | -0.57
CCN(CC)S(=O)(=O)c1ccc(N2CCN(c3cccc(OC)c3)CC2)c([N+](=O)[O-])c1 | -0.05
Cc1ccc(NC(=S)NCc2ccccn2)cc1 | -0.05
COc1cccc(CNC(=O)c2ccc3nc[nH]c3c2)c1 | 0.58
O=C1c2ccccc2C(=O)N1CCc1csc(-c2ccccc2)n1 | -2
O=C(NCCNC(=O)c1cc(OCC(F)(F)F)ccc1OCC(F)(F)F)Nc1ccc(Cl)cc1 | 0.82
CC1CCN(C2(O)C(=O)Nc3ccc(Cl)cc32)CC1 (stereo not given) | -0.1
CN(C(=O)c1ccc(OC2CCN(CCc3ccccc3)CC2)cc1)C1CCOC1 (stereo not given) | -0.61
Cc1ccc(S(=O)(=O)N2CCCC2)cc1[N+](=O)[O-] | -1.7
O=C(CN1CCC(C(=O)c2ccc3c(c2)OCCO3)CC1)NC1CCCC1 | -1.6
O=c1[nH]c2ccc(NCc3ccc(OCc4ccccc4Cl)cc3)cc2[nH]1 | -1.6
COc1cc(C2C3=C(CC(C)(C)CC3=O)N(C)C(=O)N2C)cc(OC)c1OC (stereo not given) | -0.01
O=C1c2cccc([N+](=O)[O-])c2C(=O)N1c1c[nH]c(=O)[nH]c1=O | -1.8
CCOc1ccc(/C=N/NC(=O)C2CC2)c(OCC)c1 | 3.4
C[C@@H]1CCC[C@]2(O[C@H](CCO)C[C@H](O)[C@H]2O)O1 | 1.4
CC1=C(C#N)C(c2ccoc2)C(C(=O)OCc2ccccc2)=C(N)S1 (stereo not given) | 0.25
Cc1ccccc1OCCC(=O)OCC(=O)Nc1ccc(C(N)=O)cc1 | -1.5
CC(=O)Nc1ccc(-c2nc3ccc(NC(C)=O)cc3o2)cc1 | 0.04
Cc1ccc(C2=[N+]([O-])C3(CCCCC/C3=N\O)N(O)C2(C)C)o1 (stereo not given) | 2
COc1ccc(N2CCN(Cc3nnc(-c4ccccc4)o3)CC2)cc1 | 0.05
CS(=O)(=O)N(CC(=O)NCc1ccccc1Cl)c1cccc([N+](=O)[O-])c1 | -1.6
O=C(Nc1ccc(Cl)cn1)C1CCN(c2ncnc3c2nc2n3CCCCC2)CC1 | 0.02

Source: PubChem
